Bioassay records as filed in PubChem.
NPYLR7 ag – mosquito NPYLR7 agonism; HEK293T NPYLR7/Galpha15, GCaMP6s calcium fluorescence; 270,000 tested, 0.15% active; activation, % at 10 µM; AID 1259423; in the data active = activation above about 40%;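 note: 0% = vehicle and 100% = reference agonist at the receptor; some compounds past the cut are filed as inactive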
NPYLR7 ag max-min – further read-out of NPYLR7 ag, marked with its call; activation, %; measured here: Max-Min RFU normalised activation; some inactives read as strong as hits;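 span of the calcium signal over five minutes; 0% = vehicle and 100% = native peptide agonist; compound fluorescence can raise it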
* hit, by the source's call; & = joins results of further samples.

molecule	NPYLR7 ag	NPYLR7 ag max-min
OCc1ccc(CN2CCCC(N3CCN(Cc4ccc5c(c4)OCO5)CC3)C2)o1 (stereo not drawn)	4	2
CSc1ccccc1C(=O)NNC(=O)c1ccc(=O)n(Cc2ccc(Cl)cc2)c1	-7	-13
O=C(CN1C(=O)NC2(CCCC2)C1=O)N1CCN(S(=O)(=O)c2cccs2)CC1	3	6
NC(=O)c1cnc2n1CCN(C(=O)c1csc(-c3cccs3)n1)C2	14	9
COc1ccc(S(=O)(=O)N(C)Cc2nc(N)nc(N(C)C)n2)cc1	4	2
O=C(NC1CCS(=O)(=O)C1)c1ccc(I)cc1 (stereo not drawn)	7	11
Cc1nc(C)c(Cc2cccc(C(F)(F)F)c2)c(N2CCN(C(=O)c3ccc4c(c3)OCO4)CC2)n1	5	9
CCN(CC)S(=O)(=O)c1c(C)nn(S(=O)(=O)c2ccc(Cl)cc2)c1C	5	4
Cc1cc2c(cc1O)NC(=O)CC2c1ccc(Sc2nncn2C)o1 (stereo not drawn)	13	10
COc1ccccc1CC(=O)N1CCC(c2cc3ccccc3[nH]2)CC1	12	8
CC(C)c1ccc(CC2(C)C(=O)Nc3cc(-c4ccc(F)cc4F)ccc32)cc1 (stereo not drawn)	0	-1
O=C(OCc1nnc(-c2cccs2)o1)c1cc2c(s1)CCC2	-1	4
CCn1cc(NC(=O)Nc2ccc(OC)c(OC)c2)c2ccccc21	-2	-5
Cc1nc(C)c(Cc2ccc(F)cc2)c(N2CCN(C(=O)C(C)C)CC2)n1	-5	-4
CN(C)c1ccc(NC(=O)CC(C(=O)O)N(C)C)cc1 (stereo not drawn)	9	1
COCC(c1ccccn1)N(C)Cc1cnc2c(-c3ccccc3)cnn2c1 (stereo not drawn)	23&1	8&0
O=C(Nc1ccccc1)c1cnc(N2CCN(CCc3ccccc3)C2=O)o1	1	1
c1ccc2c(Cc3nn4cnnc4s3)cccc2c1	15	9
CCCCCNC(=O)c1csc(CN(CCOC)C(=O)Nc2c(C)cccc2C)n1	12	19
N#CC=C(Cl)c1ccc(F)cc1	-3	-4
CSc1ccccc1OCc1cc(C(=O)NCCN2CCCC(O)C2)no1 (stereo not drawn)	3&-5	0&-7
Cc1nn(-c2ccccc2)c(C)c1CC(=O)N(C)Cc1ncc[nH]1	8	6
CN(C)C[C@@H]1CCN(c2nccc(C3CCCC3)n2)C[C@H]1O	-3	-3
CC(Sc1ncn[nH]1)C(=O)Nc1ccccc1C#N (stereo not drawn)	-14	-20
CCOCCOc1nc(-c2ccc(OC)cc2)n(-c2ccc(NC(=O)c3ccccc3F)cc2)n1	13	15
Cc1ccc(C)c(CN(CCN2CCOCC2)Cc2nc(C(=O)NCc3ccco3)co2)c1	16	5
CCOC(=O)C1(C/C=C/c2ccccc2)CCCN(C(=O)CSc2nnc(C)s2)C1 (stereo not drawn)	7	5
C=CCOC(=O)C1C(C)=Nc2nc(SCCCC)[nH]c(=O)c2C1c1ccc(Cl)cc1 (stereo not drawn)	2	0
COc1ccc(-n2c(SCC(=O)N3CCN(C(=O)c4ccc(Cl)cc4Cl)C(C)C3)nnc2-c2ccc(C)cc2)cc1 (stereo not drawn)	1	9
c1ccc(Cn2cccn2)c(CN2CCC(N3CCSCC3)CC2)c1	12	8
CC(C(=O)N1CCNC1=O)N1CCN(S(=O)(=O)c2ccc(Br)cc2)CC1 (stereo not drawn)	13	14
CCCc1cc(C(=O)N2CCCC(N3CCN(Cc4ccc5c(c4)OCO5)CC3)C2)no1 (stereo not drawn)	2&2	1&2

A different layout for 5 compounds above.
Value order: NPYLR7 ag | NPYLR7 ag max-min
> CC(C(=O)N1CCNC1=O)N1CCN(S(=O)(=O)c2ccc(Br)cc2)CC1 (stereo not drawn)
  13 | 14
> Cc1ccc(C)c(CN(CCN2CCOCC2)Cc2nc(C(=O)NCc3ccco3)co2)c1
  16 | 5
> C=CCOC(=O)C1C(C)=Nc2nc(SCCCC)[nH]c(=O)c2C1c1ccc(Cl)cc1 (stereo not drawn)
  2 | 0
> c1ccc(Cn2cccn2)c(CN2CCC(N3CCSCC3)CC2)c1
  12 | 8
> CCCc1cc(C(=O)N2CCCC(N3CCN(Cc4ccc5c(c4)OCO5)CC3)C2)no1 (stereo not drawn)
  2&2 | 1&2

New compounds follow.
molecule	NPYLR7 ag	NPYLR7 ag max-min
Cc1c2cnnc(Sc3ccc(Cl)cc3)c2c(C)n1C	4	3
CC(=O)c1cc(CN2CCC(CCC(=O)N3CCN(c4ccccc4)CC3)CC2)cs1	19	11
CCOC(=O)c1ccc(NC(=O)c2sc(NC(=O)c3cccs3)c(C(=O)OCC)c2C)cc1	10	8
COC(=O)C1C2CCC(C2)C1NC(=O)Nc1nccs1 (stereo not drawn)	3	3
Cc1cc(C)nc(N=C(NC(=O)c2ccccc2)Nc2ccc(C(C)C)cc2)n1	-8	-15
CCC(C)(CN(C)C)OC(=O)c1ccccc1 (stereo not drawn)	-1	-3
CC1CN(C(=O)COC(=O)CCc2ccc(C#N)cc2)CC(C)O1 (stereo not drawn)	3	3
C/C=C/COC(=O)C1=C(C)NC(=O)NC1c1ccc(N(CC)CC)cc1 (stereo not drawn)	0	-4
CCn1cnnc1CCNC1CSCCSC1	-4	-4
COc1ccccc1-n1ncc2c(C)n[nH]c(=O)c21	-4	-6
COCCN1C(=O)C(=Cc2ccc(C(=O)OC)cc2)SC1=S	-2	-5
Cc1cccc(C(=O)N2CCC3(CC2)CC(C(=O)O)N(C)C3)c1C (stereo not drawn)	3	0
CCN(CC)S(=O)(=O)c1ccc(OC)c(N2CCN(C(=O)c3cc(OC)c(OC)c(OC)c3)CC2)c1	7	11
CC(C)Oc1ccccc1-c1cccc2ccnn12	4	2
Cc1cc(C(=O)NCCn2ncc3c(N4CCOCC4)ncnc32)no1	1	1
COc1cc2c(cc1OC)C(c1c(F)cccc1Cl)N(C(=O)c1ccccc1OC)CC2 (stereo not drawn)	16	1
CCOC(=O)CC(=O)N1CCN(c2nc3ccccc3nc2C)CC1	4	3
Cn1nc(NC(=O)Cc2ccc(F)cc2)c2c1NC(=O)CC2c1ccco1 (stereo not drawn)	-14	-16
Cn1c(=O)c2c(nc(SCCN3CCOCC3)n2Cc2ccccc2Cl)n(C)c1=O	-1	2
O=S(=O)(NCc1ccc(-n2cncn2)cc1)c1ccc(C(F)(F)F)cc1	11	-2
CCN(CC(=O)Nc1cc(-c2ccccc2)nn1-c1ccccc1)C(=O)c1ccc(C(C)(C)C)cc1	17	22
Cc1ccn2c(NC(=O)C3CCCC3)c(-c3cccc(F)c3)nc2c1	-9	-5
COc1cc2c(cc1CN1CCNC(C(=O)O)C1)OCO2 (stereo not drawn)	7	-1
CCc1nc(C)cc(-c2cccc3cccnc23)n1	2	-2
COc1cc(=O)n(-c2ccc(F)cc2)nc1C(=O)N1CCc2ccccc2C1	6	3
COc1ccc(C2CCCCCN2CC(=O)N(C)c2ccc([N+](=O)[O-])cc2)cc1 (stereo not drawn)	19	18
CC(C)Cc1nnc(-c2cc3ccccc3n2CC(=O)N(C(C)C)C(C)C)o1	1	-1
CC1C(c2ccccc2)CCN1CCNS(C)(=O)=O (stereo not drawn)	1	2
Fc1ccc(CSc2ncn[nH]2)cc1	5	5
CC1CN(c2nc3c(c(=O)n(C)c(=O)n3C)n2C)CC(C)O1 (stereo not drawn)	-1	-1
O=C1c2ccccc2NC(c2cc3ccccc3[nH]c2=O)N1CC(F)(F)F (stereo not drawn)	1	0
Cc1cccc(OCCNC(=O)c2c(NC(=O)C3CC3)sc(C)c2C)c1	-3	-4
CCC(=O)N(CCN(C)C)Cc1c(-c2ccc(F)cc2)noc1N(CC)CC	3	8
C=CCOc1ccc(/C=C2\C(=O)N(c3cccc(Cl)c3)N=C2C)cc1OC	5	16
COc1cc2c(cc1OC)C(c1ccccc1Cl)N(C(=O)c1ccc(-c3ccc(OC)c(OC)c3OC)s1)CC2 (stereo not drawn)	16	5
CCCCCN(CC(=O)Nc1cc(-c2ccccc2)nn1-c1ccc(F)cc1)C(=O)Nc1ccccc1OCC	1	12
O=C(NCCc1cccc(Cl)c1)C1CCCCC1C(=O)N1CCc2c([nH]c3ccccc23)C1 (stereo not drawn)	-10	-15
O=C(c1cc[n+]([O-])cc1)N1CCC2(CCCN(CCC3CCCCC3)C2)C1 (stereo not drawn)	4	-2
Nc1nc(N)c2nc(-c3ccccc3)c(N)nc2n1	9&-1&3&-7	0&-5&17&-12
NS(=O)(=O)c1ccc(NC(=O)c2ccc(-c3ccc(Cl)c(Cl)c3)o2)cc1	-3	7
CCOC(=O)Cc1cc(=O)n2c(nc3ccccc32)[nH]1	18	14
O=C(Cc1cc(-c2cc3ccccc3o2)on1)NCc1ccncc1	5	9
O=C(Cn1cccn1)N1CCC(n2c(-c3ccc4c(c3)OCO4)nc3cc(C(F)(F)F)ccc32)CC1	-1	-1
Clc1cccc(-c2noc(CN3CCN(C/C=C/c4ccccc4)CC3)n2)c1	14	0
CC=CC=CC(=O)OCC(=O)NC(=O)NC(C)(C)C	-2	-3
Cc1nc(-c2ccccn2)sc1C(=O)N1CCC(NS(C)(=O)=O)CC1	5	2
CSc1nn(CC(=O)Nc2ccc3c(c2)OCO3)c(N)c1S(C)(=O)=O	-1	-8
Fc1cc(F)c(F)c(SCc2csc(Cc3ccc(Cl)c(Cl)c3)n2)c1F	2	-1
CC(=O)Nc1cccc(-c2cc(C(=O)NC3CC3)ccn2)c1	-3	-5
CC1(c2ccccc2)CC(C)(C)N(C(=O)CSc2ncn[nH]2)c2ccccc21 (stereo not drawn)	-5	-6
COc1cccc(-c2cnc(-c3cccc(CNC(=O)c4ccc(F)cc4Cl)c3)[nH]2)c1	4	6
COC(=O)C1=C(C)N=c2s/c(=C\c3c(F)cccc3Cl)c(=O)n2C1c1ccc(OC)cc1 (stereo not drawn)	3	9
NC(=O)c1cccc(Cn2ncc(Cl)c(Cl)c2=O)c1	-2	-2
Nc1cc(=O)nc(SCC(=O)N2CCCc3ccccc32)n1-c1ccccc1	7	4
COc1ccc(CC(=O)N2CCC[C@@H]2C(=O)NCCCNC(=O)c2ccccc2)cc1	25	26
COc1ccc(Cl)cc1-n1c(C)c(C)n2c3c(=O)n(C)c(=O)n(C)c3nc12	-2	20

Later entries:
molecule	NPYLR7 ag	NPYLR7 ag max-min
CCOc1cccc(N2CCN(C(=O)C3CCCC3)C(C)C2=O)c1 (stereo not drawn)	25	32
O=C1NC2=C(C(=O)CCC2)C(c2ccc3c(c2)OCO3)N1 (stereo not drawn)	0	-12
CC(C)(C)c1onc(OCP(=O)(O)O)c1CC(N)C(=O)O (stereo not drawn)	4	-9
Cn1cc(-c2cnc3c(NC=O)cc(-c4cccc(C(F)(F)F)c4)cn23)cn1	-2	-8
O=C(Oc1coc(CSc2ncccn2)cc1=O)c1cc2ccccc2oc1=O	-12	-6
CC(C)Cn1cc(NC(=O)C(C)(C)NC(=O)Nc2ccccc2)cn1	8	7
COc1cccc(OCCn2c(C(C)NC(=O)c3ccco3)nc3ccccc32)c1 (stereo not drawn)	-2	2
CCN(CC)S(=O)(=O)c1ccc2c(c1)nc(SCc1cc(OC)cc(OC)c1)n2CC1CCCO1 (stereo not drawn)	4	1

3 entries already listed, arranged by molecular weight, falling.
molecule	NPYLR7 ag	NPYLR7 ag max-min
O=C(Oc1coc(CSc2ncccn2)cc1=O)c1cc2ccccc2oc1=O	-12	-6
CC(C)(C)c1onc(OCP(=O)(O)O)c1CC(N)C(=O)O (stereo not drawn)	4	-9
O=C1NC2=C(C(=O)CCC2)C(c2ccc3c(c2)OCO3)N1 (stereo not drawn)	0	-12

(continued)
molecule	NPYLR7 ag	NPYLR7 ag max-min
N=C1C(=O)OCC1c1ccccc1NC(=O)c1ccccc1 (stereo not drawn)	-7	-7
COc1ccc(Cl)cc1C(=O)Nn1cnc2c(cnn2-c2cccc(Cl)c2)c1=O	3	1
COc1cc(C(=O)N2CCc3c([nH]c4ccccc34)C2c2ccccn2)c2ccccc2n1 (stereo not drawn)	13&-7	6&-13
O=C(c1cccc(C(F)(F)F)c1)C1CCCN(C(=O)CCc2ccc3c(c2)OCO3)C1 (stereo not drawn)	5	1
O=C(Nc1ccc(C(F)(F)F)cc1)c1cc(=O)[nH]c2ccccc12	-5	-10
CNC(=O)CN1C(=O)CN(C(=O)C2CCCC2)CCC(OC)c2ccccc21 (stereo not drawn)	6	11
Cc1cc(Br)c(Cl)cc1NC(=O)C1C2CC3OC(=O)C1C3C2 (stereo not drawn)	0	0
COc1cccc(CN2CCN(Cc3ccc(OC)cc3F)CC2=O)c1	3	3
CCCc1cc(C(=O)Nc2ccc(C)c3ncccc23)n[nH]1	-3	-3
COC(=O)c1cc(-c2ccccc2)nc2c1c(-c1ccco1)nn2C1CCS(=O)(=O)C1 (stereo not drawn)	-3	-1
Cc1ccc(-c2cc(C(=O)Nc3ccccc3)c3cccc(C)c3n2)cc1	-5	-5
Cc1nc2nc(CN3CCCC(CCc4ccccc4C)C3)cc(=O)n2[nH]1 (stereo not drawn)	4	-5

Some of the compounds tested, so the mix of outcomes need not match the whole.
